# Compound activity deposited in PubChem by National Center for Advancing Translational Sciences (NCATS).
# AmpC nodet inh – blocks E. coli AmpC beta-lactamase in absence of detergent; P00811; AmpC nitrocefin hydrolysis, absorbance 480 nm, no detergent; potencies from a single point are estimates; Potency, µM (highest dose often 28.7 µM), for the others: at the top dose activity change, negative = inhibition; hit rate 1.8% among 71,000; active = falling curve, for most hits resting on a single point; inconclusive = weak or doubtful change; inactive = flat or rising curve; further: % of control where 0% means no effect; about half of the hits show no inhibition at the top dose; a quarter of the inactives give rising signals
# Target sequence (P00811 whole entry, looked up): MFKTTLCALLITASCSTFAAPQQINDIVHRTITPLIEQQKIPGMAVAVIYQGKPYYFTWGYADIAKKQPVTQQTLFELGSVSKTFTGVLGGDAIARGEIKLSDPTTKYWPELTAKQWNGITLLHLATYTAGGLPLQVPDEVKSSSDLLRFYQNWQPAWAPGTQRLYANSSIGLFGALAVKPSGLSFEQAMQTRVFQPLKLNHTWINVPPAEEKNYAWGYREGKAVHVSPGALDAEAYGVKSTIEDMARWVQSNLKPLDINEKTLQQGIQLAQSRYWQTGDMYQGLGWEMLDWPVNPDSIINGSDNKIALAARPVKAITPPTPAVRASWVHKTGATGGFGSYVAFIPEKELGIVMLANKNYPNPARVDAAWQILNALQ
#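 Enzyme, pH 7.0 phosphate. Compound titrations were pre-incubated with AmpC for 15 min at room temperature before nitrocefin (stock 800 uM) addition; product formation was recorded at 480 nm every 20 s for 4 min.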
# Starred values were filed as active, the others as inactive; ? = inconclusive; & = joins results of further samples; [ ] = remark or other dose. Potency means the concentration at half of the fitted maximal effect.
SMILES,AmpC nodet inh
COc1ccccc1C1C(C#N)=C(N)Oc2cc(C)n(CCCn3ccnc3)c(=O)c21 (centres undefined),-8%
COc1ccc(N(CC(=O)O)N=O)cc1,-12%[5.75 µM]
CCOC(=O)N1CCN(c2nc3ccccc3nc2C(C#N)S(=O)(=O)c2ccc(C)cc2)CC1 (centres undefined),21%
COC(=O)CNC(=O)C(C)NC(=O)OCc1ccccc1 (centres undefined),-4%
O=C(NCc1ccc2c(c1)OCO2)c1cccnc1,2%
O=C(NC1CCCC1)C1CCN(S(=O)(=O)c2cccc3cccnc23)CC1,3%
COc1ccc(-c2noc(CCC(=O)NCCN(C)Cc3ccccc3)n2)cc1,65%
CCOC(=O)c1sc2ncn(C(CC)C(=O)OCC)c(=O)c2c1C (centres undefined),30%
CCOc1nc(C)ccc1-c1noc(-c2ccccn2)n1,58%
COCCCn1c(SCC(=O)NCc2ccco2)nc2sc3c(c2c1=O)CCC3,71%
CCn1cc(C2Nc3ccccc3C(=O)N2O)c(C)n1 (centres undefined),-6%
O=c1c2ccccc2nc(SCc2nc(-c3ccccc3)no2)n1-c1ccc(F)cc1,-7%
O=C(Cn1nc(C(F)(F)F)c2c1CCC2)NCc1ccc(F)cc1,9%
CCc1ccc(S(=O)(=O)NCCc2cn3ccsc3n2)s1,0%
COc1cccc(N2CCN(CC(=O)Nc3nc4c(s3)CC(C)CC4)CC2)c1 (centres undefined),94%
CCN1C(=O)c2cccc3c(S(=O)(=O)Nc4ccc(OC)cc4OC)ccc1c23,40%
Cc1cc(NC(=O)CSc2nc3ccsc3c(=O)n2Cc2ccccn2)n[nH]1,-10%
Cc1nc([N+](=O)[O-])cn1-c1nc2ccccn2c1[N+](=O)[O-],-1%[5.75 µM]
O=C(O)C1NCCc2ccccc21 (centres undefined),0%
O=C(NCc1cccs1)C1CCCN1S(=O)(=O)c1ccccc1F (centres undefined),11%
O=C(c1ccc2c(c1)OCO2)N1CCCN(C(=O)c2ccc3c(c2)OCO3)CC1,1%
C=CCn1c(COc2ccccc2)nnc1SCC(=O)C(C)(C)C,64%
CCCCCC(=O)Nc1ccc2oc(-c3cncc(Br)c3)nc2c1,?
COCCNC(=O)C(c1ccc(F)cc1)N(CC1CCCO1)C(=O)CCC(=O)Nc1ccccn1 (centres undefined),54%
O=C(Nc1cnn(C23CC4CC(CC(C4)C2)C3)c1)c1cc(-c2ccccc2)on1,-19%
Cn1cccc1C(=O)N1CCC2(CCCN(c3ncccn3)C2)CC1,17%
CCOC(=O)c1c(CN2CCCCC2)n(C)c2ccc(OC)c(S(=O)(=O)c3ccccc3)c12,97%
CN(C(=O)C1CCOC1)c1nnc(-c2ccccn2)s1 (centres undefined),1%
CCCN1CCN(c2nc3c([nH]2)c(=N)ncn3CC(O)CO)CC1 (centres undefined),-14%
C=Cn1c(N2CCOCC2)nc2c1c(=O)[nH]c(=O)n2C,10%
c1ccc2c(c1)Sc1ccccc1N2C[C@H]1CN2CCC1CC2,0%[5.75 µM]
Cc1cc(N2CCOCC2)nc2ccc(NC(=O)C3CCC(C)CC3)cc12 (centres undefined),100%
O=S(=O)(Nc1cccc(-c2cn3ccsc3n2)c1)c1ccc(F)cc1,-9%
Cc1ccc2cc(CCNC(=O)c3ccco3)c(=O)[nH]c2c1,0%
Cc1nnc(SCC(=O)Nc2ccc3c(c2)OCCO3)s1,-9%
COC(=O)c1sccc1NC(=O)c1c(C)noc1C,91%
CCOC(=O)N1CCN(C(=O)CS(=O)Cc2nc(-c3ccc(C)cc3)oc2C)CC1 (centres undefined),109%
O=S(=O)(c1ccc(Oc2ccc(-c3nnco3)cc2)nc1)N1CCC(Cc2ccccc2)CC1,27%
CC(C)CN(CC(C)C)S(=O)(=O)N1CCC(C(=O)NC2CCCCCCC2)CC1,23%
COCCn1nnnc1C(c1cccs1)N1CCN(c2cc(C)ccc2C)CC1 (centres undefined),80%
O=C(NCC12CC3CC(CC(C3)C1)C2)c1nc2ncccn2n1,28%
CN(Cc1ccccc1)C(=O)CSc1nnc(-c2ccco2)n1-c1ccccc1,71%
O=C(CSc1nnc(COc2ccccc2Cl)o1)NC(=O)NC1CCCC1,19%
COc1ccccc1OCc1nnc(SCCN2CCOCC2)o1,15%
COc1ccccc1C(=O)Nc1cccc(-c2cn3ccsc3n2)c1,3%
COc1ccccc1C(=O)Nc1ccc2oc(-c3ccc(F)cc3)nc2c1,22%
O=C(OC(C(=O)NCc1cccs1)c1ccc(F)cc1)c1ccco1 (centres undefined),-12%
CC(C)Oc1cccc(C(=O)Nc2ccc(N3CCN(S(C)(=O)=O)CC3)cc2)c1,6%
Cn1c(=O)c2c(nc(CN3CCCCC3)n2CCCc2ccccc2)n(C)c1=O,103%
Nc1nonc1NC(=O)CSc1ncccc1C(=O)O,-13%
N#Cc1cc2sc3nc4ccccc4n3c2cc1C#N,-2%
CC(C)NC(=O)NC1C2CC3CC(C2)CC1C3 (centres undefined),1%
CN(C)/C=N/c1c(C#N)cnn1-c1ccc(C(F)(F)F)cn1,3%
CCc1ccc(S(=O)(=O)NCCc2csc(-c3ccccc3)n2)s1,-3%
CCOC(=O)c1cc2c(c(CSc3nc4ccccc4c(=O)n3Cc3ccco3)c1)OCOC2,?
Cc1ccccc1-c1cc(-n2ccnc2)ncn1,4%
O=c1cc(Nc2ccc3c(c2)OCCO3)[nH]c(=O)n1-c1ccc(Br)cc1,-25%
CN(C)CCCN1C(=O)c2oc3ccc(Cl)cc3c(=O)c2C1c1cccnc1 (centres undefined),29%
Cc1nnc(SCC(=O)N2c3ccccc3CC2C)s1 (centres undefined),-4%
O=C(CCS(=O)(=O)c1cccc2nonc12)NCCc1ccccc1Cl,9%

# Reformatted with tabs: two of the compounds above.
SMILES	AmpC nodet inh
O=c1c2ccccc2nc(SCc2nc(-c3ccccc3)no2)n1-c1ccc(F)cc1	-7%
CN(C)/C=N/c1c(C#N)cnn1-c1ccc(C(F)(F)F)cn1	3%

# (listing goes on)
SMILES,AmpC nodet inh
CCCCCCC(=O)N(O)C1CC(=O)N(c2ccccc2)C1=O (centres undefined),-6%
Cc1cnc(CNc2ccnc(-c3ccccc3Cl)n2)cn1,-8%
COC(=O)c1cccc(Oc2nc(N3CCOCC3)nc(N3CCOCC3)n2)c1,8%
Cc1cc(C)n(C(=O)CN2C(=O)COc3ccccc32)n1,15%
O=C(Nc1ccc(-c2cn3ccsc3n2)cc1)C1CCCC1,1%
O=C(CSc1nnc(Cc2ccccc2)o1)NCc1ccco1,2%
O=C(NCCN1CCOCC1)C1CC(=O)N(c2ccc(F)c(Cl)c2)C1 (centres undefined),-15%
NCCc1c[nH]c2ccc(C(N)=O)cc12,11%&-2%
N=c1nc(-c2ccccc2)ccn1O,-4%
Cc1nc2cc(-c3ccccc3)ccc2o1,12%
CCOc1ccc(N2Cc3ccccc3C2)cc1,9%
C=CCn1cnc2c(NCc3ccccc3)ncnc21,7%
Cc1ccc(C(c2nnnn2C(C)(C)C)N2CCN(C3CCCC3)CC2)cc1 (centres undefined),4%
Nc1ncc2c(n1)CC(c1ccco1)CC2=O (centres undefined),-1%
Cc1ccc(S(=O)(=O)C2(C(=O)Nc3ccc(F)cc3)CC2)cc1,-7%
Cc1c(C)c2c(C)nn(-c3ccccc3)c2[nH]c1=O,5%
COC(=O)Cc1cc(=O)[nH]c(/N=C(\N)Nc2ccc(C)cc2C)n1,39%
COc1ccc(CCNC(=O)CCSc2nc(-c3ccco3)cc(C(F)(F)F)n2)cc1,38%
COc1ccc(OC)c(NC(=O)CCN2CCN(c3ccccc3F)CC2)c1,51%
CC(=O)NC(Cc1ccc(C(C)C)cc1)C(=O)NC1CCN(c2nc(C)cc(C)n2)CC1 (centres undefined),114%
O=C1c2ccccc2C(=O)N1Cc1nc2ccccc2c(=O)n1CCCn1ccnc1,6%
CCCn1nnnc1SCC(=O)N(C(C)C)C(C)C,9%
CSC1=Nc2sc3c(c2C2=NCCN12)CCCC3,12%
CCOC(=O)c1cccc(NC(=O)CCNS(=O)(=O)c2ccc3c(c2)CCN3C(=O)CC)c1,29%
COc1ccc2[nH]cc(CCNC(=O)C3CCCNC3=O)c2c1 (centres undefined),2.5µM*[single pt active]
CCn1c(=O)c2cc(S(=O)(=O)NCc3ccccc3)ccc2n(CC)c1=O,8%
CCn1c(SCC(=O)N2CCN(c3ccccc3)CC2)nc2c(c1=O)SC(C)C2 (centres undefined),75%
O=S(=O)(NCc1ccc(F)cc1)c1ccc2c(c1)OCCO2,-22%
COc1cc2c(cc1OC)C1=C(C#N)CCC(=O)N1CC2,6%
CS(=O)(=O)N1CCC(C(=O)c2cccc(Cl)c2)CC1,0%
Cc1nnc(N2C(=O)C(O)=C(C(=O)c3ccco3)C2c2ccc(F)cc2)s1 (centres undefined),4µM*[single pt active]
CCCOc1ccc(CSc2ncn[nH]2)cc1,-9%
CCCCC(c1nnnn1CC1CCCO1)N1CCN(c2cc(Cl)ccc2C)CC1 (centres undefined),84%
CCn1nnnc1SCC(=O)NCc1ccco1,13%
CNC(=O)NC(=O)CSc1ncc(C(F)(F)F)cc1Cl,1%
CCCCC(CC)CO (centres undefined),-4%
CCOc1cc2[nH]c(=S)n(Cc3ccc(C)o3)c(=O)c2cc1OCC,14%
COc1ccc(C/C(O)=C(\C#N)c2nc3ccccc3[nH]2)cc1OC,14%
O=S(=O)(c1ccccc1)N1CCC[C@@]2(CCN(Cc3nccs3)C2)C1,40%
Cn1c(CN2CCOCC2)nc2cc(NC(=O)c3ccccc3Cl)ccc21,8%
Cc1cc(C(=O)CSc2nc3ccccc3o2)c(C)n1C1CC1,-2%
CN=C(C)C1=C(O)C(C(=O)OC)C(C)(C)CC1=O (centres undefined),4%
CCCC(=NCC(=O)O)C1=C(O)C(C(=O)OC)C(C)(C)CC1=O (centres undefined),12%
CCOC(=O)N1CCN(C(=O)CN2C(=O)COc3ccc(C)cc32)CC1,4%
N#Cc1cccc(Cn2nnc(-c3ccccc3)n2)c1,-13%
COc1ccc(CN2CCN(C(=O)c3ccco3)CC2)cc1,4%
Cc1onc(-c2c(Cl)cccc2Cl)c1C(=O)Nn1cnnc1,-3%
Cn1nnc(-c2ccc(OCc3ccccc3F)cc2)n1,7%

# An excerpt of these results, field by field:
CCn1cc(C2Nc3ccccc3C(=O)N2O)c(C)n1 (centres undefined)
  AmpC nodet inh: -6%

Cc1cnc(CNc2ccnc(-c3ccccc3Cl)n2)cn1
  AmpC nodet inh: -8%

COCCNC(=O)C(c1ccc(F)cc1)N(CC1CCCO1)C(=O)CCC(=O)Nc1ccccn1 (centres undefined)
  AmpC nodet inh: 54%

CCn1c(SCC(=O)N2CCN(c3ccccc3)CC2)nc2c(c1=O)SC(C)C2 (centres undefined)
  AmpC nodet inh: 75%

# New compounds follow
SMILES,AmpC nodet inh
Cc1cc(NC(=O)NC2(C(F)(F)F)Oc3ccc(Cl)cc3O2)no1 (centres undefined),-17%
CC(C)n1nc(C(=O)OCC(=O)N(C)C2CCS(=O)(=O)C2)c2ccccc2c1=O (centres undefined),8%
CCn1nnnc1SCC(=O)Nc1nc(-c2cccs2)cs1,-16%
CS(=O)(=O)N1CCC[C@@]2(CCN(Cc3ccccc3)C2)C1,28%
CC(C)(C)C(O)C(Oc1ccc(Cl)cc1)n1cncn1 (centres undefined),27%
O=c1c2ccccc2nnn1CSc1nnc(-c2ccco2)o1,-3%
Cc1coc2c(C)c3oc(=O)c4c(c3cc12)CCCC4,-10%
O[C@@H](C1=C/C(=C\c2ccncc2)c2ccccc21)c1ccncc1,15%[5.75 µM]
COCCN1C=C(C(=O)OC)C(c2ccc3c(c2)OCO3)C(C(=O)OC)=C1,56%
CC(=O)Nc1sc(C)c(C)c1C(=O)OC1CCOC1=O (centres undefined),20%
O=C(COc1ncnc2sccc12)N1CCN(S(=O)(=O)c2ccc(Cl)cc2)CC1,23%
COCc1ccc2oc(C(=O)O)cc2c1,-15%
O=C(C1=C(O)C(=O)N(CCN2CCOCC2)C1c1ccncc1)c1ccco1 (centres undefined),-5%
COC(=O)c1ccc(OC(=O)c2ccccn2)cc1,-9%
Cc1ccccc1C(=O)OCn1nnc2ccccc2c1=O,-2%
NC(N)=Nc1nc(CSCC/C(N)=N/S(N)(=O)=O)cs1,6%[12.8 µM]
CCN(CC)CCNc1nc2ccccc2n1C,-15%
Cc1cc(Nc2cc(F)ccc2C)n2nc(C)nc2n1,17%
O=C1C=CC(=O)c2c1ccc1c2ccc2ccccc21,-20%[12.8 µM]
CCn1c(C(=O)N2CCC(C(=O)NCc3ccc4c(c3)OCO4)CC2)cc2sccc21,100%
CCCCCCN(C(=O)CCCCCN1C(=O)NC(c2ccc(-c3ccccc3)cc2)C(C(=O)OCc2ccccc2)=C1C)C(C(=O)NCCCC)c1ccc(-c2ccccc2)cc1 (centres undefined),-7%
Cc1cc(C)c2cc(C#N)c(NCCCNC(=O)CCC(=O)O)nc2c1,13%
COc1ccc2[nH]c(=O)c(CN(CC3CCCO3)C(=O)Nc3ccccc3OC)cc2c1 (centres undefined),104%
CCN1c2ccccc2NC2C1C(C(C)=O)C(=O)N2c1ccc(Cl)cc1 (centres undefined),43%
CC(C)N1C(=S)SC(C)(C)C1NO (centres undefined),-3%
Cc1ccc(SC/C(O)=C(\C#N)c2nc3ccccc3n2C)cc1,-20%

# Reprinted at random: 5 compounds from above
SMILES,AmpC nodet inh
Cc1ccc(SC/C(O)=C(\C#N)c2nc3ccccc3n2C)cc1,-20%
COc1ccc2[nH]c(=O)c(CN(CC3CCCO3)C(=O)Nc3ccccc3OC)cc2c1 (centres undefined),104%
CCN(CC)CCNc1nc2ccccc2n1C,-15%
CC(C)N1C(=S)SC(C)(C)C1NO (centres undefined),-3%
O=C(C1=C(O)C(=O)N(CCN2CCOCC2)C1c1ccncc1)c1ccco1 (centres undefined),-5%

# Only part of the results is shown; rates above refer to the full screens.
